RGS16-Gao HTS – modulators of RGS16 binding to Galphao, primary screen, biochemical, human proteins, multiplexed bead flow cytometry | bead-based flow cytometry RGS16-Galphao binding, fluorescence; actives lie on both sides | binding response (% of control), % at 10 µM | 220,000 compounds, 0.38% hits;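 active = below 25% or above 175%, edge rows of some plates excepted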;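 note: Galphao activated by GDP with aluminum fluoride before binding; 100% = wells without compound and 0% = beads without RGS; some results beyond the cut were filed as inactive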
Target sequence (O15492 whole entry, looked up): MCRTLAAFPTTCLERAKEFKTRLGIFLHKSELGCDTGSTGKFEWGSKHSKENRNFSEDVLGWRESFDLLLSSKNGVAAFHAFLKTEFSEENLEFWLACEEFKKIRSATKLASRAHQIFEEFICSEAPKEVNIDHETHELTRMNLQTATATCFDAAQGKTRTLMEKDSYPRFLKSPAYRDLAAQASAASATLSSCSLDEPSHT
Target sequence (P09471 whole entry, looked up): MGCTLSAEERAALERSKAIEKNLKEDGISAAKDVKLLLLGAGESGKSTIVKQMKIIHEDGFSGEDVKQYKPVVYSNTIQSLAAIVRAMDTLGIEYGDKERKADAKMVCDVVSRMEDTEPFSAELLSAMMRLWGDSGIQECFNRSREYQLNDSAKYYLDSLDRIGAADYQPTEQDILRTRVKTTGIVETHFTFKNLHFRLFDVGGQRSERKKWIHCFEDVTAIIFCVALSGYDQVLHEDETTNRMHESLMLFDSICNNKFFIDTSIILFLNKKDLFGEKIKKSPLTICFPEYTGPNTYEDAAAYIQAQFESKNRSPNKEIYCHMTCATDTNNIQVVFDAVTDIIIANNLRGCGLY
HSV augment – enhancers of HSV replication in host cells, fold increase, host cell viability | maximum fold increase | AID 1956, 2009 | 220,000 compounds, 0.005% hits | HSV replication augmentation in cells;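 active = peak rise of 1.5-fold or more in the series; tested in PC3 cells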;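 note: first round at 10 µM; read as green reporter fluorescence; hits show the peak of a series up to 25 µM; 1 = signal of infected wells without compound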
GALR2 ag – GALR2 receptor agonists, primary screen, cell-based; Galanin receptor type 2 (Homo sapiens), O43603; GALR2-expressing cells, agonist activation read-out; activation, %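 (tested at 5 µM)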; 140,000 compounds, 0.48% hits; AID 803, 2007;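 active = above mean plus 3 SD of all compounds, about 5% in these data, not always enough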;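 note: 0% = vehicle buffer wells and 100% = reference agonist at full effect; tested in CHO reporter cells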
Target sequence (O43603 whole entry, looked up): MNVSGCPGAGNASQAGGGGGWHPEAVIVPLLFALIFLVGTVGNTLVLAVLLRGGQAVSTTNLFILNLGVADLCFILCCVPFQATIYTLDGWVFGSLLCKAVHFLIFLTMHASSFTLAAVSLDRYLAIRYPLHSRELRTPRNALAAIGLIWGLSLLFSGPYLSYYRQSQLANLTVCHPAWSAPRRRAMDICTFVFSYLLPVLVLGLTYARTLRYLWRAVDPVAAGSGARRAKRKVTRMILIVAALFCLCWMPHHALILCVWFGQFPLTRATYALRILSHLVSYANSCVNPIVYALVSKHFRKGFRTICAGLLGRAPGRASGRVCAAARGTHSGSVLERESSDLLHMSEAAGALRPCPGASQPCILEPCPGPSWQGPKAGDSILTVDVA
INS promoter inh – inhibitors of insulin promoter-driven GFP, primary screen, imaging, TRM-6 cells (human fetal islet line), eGFP reporter, cell count; inhibition, % at 2 µM; reporter expression induced with tamoxifen; 130,000 compounds, 0.9% hits;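 active = inhibition above the mean plus 3 SD, with well images judged a real hit on visual review, cut at about 60% in these data, passing the limit was not always enough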
PKD1 kinase inh – inhibitors of human PKD1 kinase, biochemical, fluorescence polarization; Serine/threonine-protein kinase D1 (Homo sapiens), Q15139; PKD1 kinase fluorescence polarization assay; inhibition, %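 (about 10 µM by stock and volumes)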; 200,000 compounds, 0.056% hits; AID 797, 2007;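 active = inhibition of 50% or more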;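 note: controls were vehicle for no effect and a reference inhibitor for full effect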
INS promoter inh cell count – also measured in INS promoter inh; calls as there; normalized cell count, %; measured here: cell count, toxicity; reference of the scale not given here;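 cells exposed to compound for 48 h; stained nuclei by imaging scaled within each plate; lower means fewer cells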
HSV augment primary fold – also measured in HSV augment; calls as there; fold increase; compound at 10 µM; measured here: primary screen fold increase 10 uM; tested in PC3 cells;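 GFP signal in the first replicate; 1 = infected wells without compound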
Active calls of the source: *; i = inactive; x = no result given.

SMILES	RGS16-Gao HTS	HSV augment	HSV augment primary fold	GALR2 ag	INS promoter inh	INS promoter inh cell count	PKD1 kinase inh
Cc1ccc(C(OC(=O)c2ccco2)C(=O)NC2CCCCC2)cc1 (stereo not given)	96	i	0.86	-1.5	-31	97	-2
Cc1ccc(NC(=O)c2c(-c3ccccc3Cl)noc2C)nc1	95	i	1.1	x	x	x	x
O=C(Nc1cccc(-c2nc3ccccc3o2)c1)c1ccc(N2C(=O)C3C4C=CC(C4)C3C2=O)cc1 (stereo not given)	108	i	0.64	0.7	-9	119	-1
Cc1ccc2c(c1)C(=O)CC(O)(C(F)(F)F)O2 (stereo not given)	96	i	1.2	x	x	x	x
O=C1Nc2ccc(F)cc2C12SCCS2	103	x	x	-2.7	-21	124	4
Clc1cccc2sc(N3CCOCC3)nc12	x	i	0.86	-1.6	x	x	-9
COc1ccc(OCCC(=O)OCC(=O)NCc2ccccc2)cc1	96	i	1	-0.4	x	x	-6
CCC(C(=O)Nc1ccc(C(=O)N2CCCC2)cc1)c1ccccc1 (stereo not given)	104	i	0.94	x	-13	116	-7
O=C(NNC(=O)c1cccnc1)NC12CC3CC(CC(C3)C1)C2	110	i	0.84	0.3	-42	167	-2
CN(C)c1ccc(C(=O)C(O)c2ccc(C(C)(C)C)cc2)cc1 (stereo not given)	108	i	1	0.0	40	117	-8
CCN(c1ccc2c(c1)OCO2)S(=O)(=O)c1cc(Br)cc2c1N(C(=O)C1CC1)CC2	23	x	x	-0.9	3	77	-2
CCOC(=O)C1CCN(c2c(N3CCN(Cc4ccccc4)CC3)c(=O)c2=O)CC1	174	i	0.85	-3.2	x	x	-17
Cc1ccc(-n2c(C)nn(CC3CC3)c2=O)cc1	103	i	0.89	x	x	x	2
COc1cccc(NC(=O)CN(C)S(=O)(=O)c2ccc(C)cc2)c1	99	i	0.93	-1.7	-12	87	-8
O=C(CSc1n[nH]c(=O)n1Cc1ccco1)N1CCOCC1	99	i	1	x	x	x	x
CCOC(=O)C1=C(C)OC(N)=C(C#N)C1c1ccccc1 (stereo not given)	114	i	1	x	x	x	3
CC(C)Sc1nnc([C@H](Cc2c[nH]c3ccccc23)NC(=O)OC(C)(C)C)o1	98	i	1	-3.6	31	192	1
CC1=C(C(=O)OCc2ccccc2)C(c2ccc(N3CCOCC3)cc2)NC(=O)N1 (stereo not given)	101	i	1	-1.2	-60	117	25
CC(=O)c1c(C)nc(Nc2nc(C)c3cc(C)ccc3n2)nc1C	106	i	0.98	x	21	122	1
CC(C)c1ccc(-c2nc3c([nH]2)c(=O)n(C)c(=O)n3C)cc1	99	i	0.92	-2.3	40	141	-11
O=C(COc1ccc(NS(=O)(=O)c2ccc(F)cc2)cc1)N1CCOCC1	101	i	1.1	x	-44	103	-2
COc1ccc(-c2nc(-c3cccc(C(F)(F)F)c3)no2)cc1OC	102	i	1.1	-1.4	x	x	-21
Cc1cccc(CSc2nc3ccncc3n2CC(=O)Nc2cc(C)cc(C)c2)c1	101	i	0.95	-0.5	-10	80	-8
Cc1ccc(S(=O)(=O)N2CCN(S(=O)(=O)c3ccc(C)cc3)C2)cc1	96	i	0.95	-3.0	33	86	0
O=C(NCc1ccccc1)Nc1cccn(Cc2ccccc2Cl)c1=O	103	i	0.99	x	5	66	-3
CC12CCC(C(=O)N(c3ccc(Cl)cc3)C1=O)C2(C)C (stereo not given)	119	i	0.96	-0.6	17	105	6
CN(C)CCNc1c2c(c(C#N)c3nc4ccccc4n13)CCCC2	139	i	0.88	0.9	x	x	-14
CCc1ccc2oc(=O)cc(CN3CCN(CCO)CC3)c2c1	102	i	0.98	-0.8	22	61	-15
CS(=O)(=O)c1ccc(N2CCN(C3CC(=O)NC3=O)CC2)cc1 (stereo not given)	98	i	0.95	-1.9	-5	89	-8
Cn1c(=O)c2c(nc(N3CCCCC3)n2C)n(C)c1=O	100	i	0.98	-1.1	-13	100	-22
CSC(SC)=C(C#N)C(=O)c1ccccc1	99	i	1.1	x	x	x	x
O=C(NCc1cccnc1)c1ccc(NC(=O)c2cccc([N+](=O)[O-])c2)cc1	101	i	0.91	x	x	x	-4
O=C(CNC(=O)C12CC3CC(CC(C3)C1)C2)N/N=C\c1ccccn1	111	i	0.99	x	x	x	-2
CN1CCN(S(=O)(=O)c2ccc(-c3ccc(Cl)cc3)cc2)CC1	104	i	1	-1.3	4	58	2
C=CCN(CC=C)C(=S)NC(=O)c1ccc(OC)c(Br)c1	99	i	0.81	-1.5	10	70	-14
CCN(CC)c1nc(N)c([N+](=O)[O-])c(NCCO)n1	99	i	0.9	1.5	19	94	-2
CNC(=S)N(CCc1ccc(OC)c(OC)c1)Cc1cc2c(C)cc(C)cc2[nH]c1=O	105	i	0.98	-1.1	7	119	-16
COc1cnc(SCc2ccc(Cl)cc2Cl)nc1Cl	129	i	1.2	-1.0	0	134	4
C=CCNC(=O)c1ccc(-c2cccc([N+](=O)[O-])c2)o1	99	i	0.97	x	21	130	-4
Cc1c(NC(=O)CSc2nnnn2-c2ccc(F)cc2)c(=O)n(-c2ccccc2)n1C	98	i	1.1	x	0	115	-1
O=C(Nc1ccc(Cl)cn1)c1cc(S(=O)(=O)N2CCCCC2)ccc1Cl	82	i	1.1	-3.5	4	92	-6
CCOC(=O)CNC(=O)c1c(C)nn(C)c1Cl	100	i	1	x	x	x	-9
Cc1ccc2c(c1)N(CC(=O)NC1CCCc3ccccc31)C(=O)CO2 (stereo not given)	105	i	0.95	-0.8	x	x	-7
CCCN(CCC)CC(=O)Nc1cccc2c1OCO2	98	i	1	1.1	-46	116	-3
COc1ccc(C2CC(c3cccs3)=NN2S(C)(=O)=O)cc1OC (stereo not given)	107	i	1	x	x	x	-2
CCOc1c2c(nc3ccc(Cl)cc13)CCC2	104	i	0.86	0.4	x	x	1
CCOc1ccc(OCC)c(NS(=O)(=O)c2ccc3c(c2)n(C)c(=O)c(=O)n3C)c1	97	i	0.9	0.8	60	66	3
COC(=O)C1=C(C(C)=O)C(c2ccc(C(=O)OC)cc2)n2nnnc2N1 (stereo not given)	107	i	0.97	-0.9	4	197	2
Cc1ccc(S(=O)(=O)N2CCC(C(=O)O)CC2)cc1	111	i	1	x	x	x	1
Cc1c(C(=O)OCC(=O)Nc2ccc3c(c2)OCO3)cccc1[N+](=O)[O-]	93	i	1.1	-1.1	21	163	-12

New compounds follow:
SMILES	RGS16-Gao HTS	HSV augment	HSV augment primary fold	GALR2 ag	INS promoter inh	INS promoter inh cell count	PKD1 kinase inh
CCN(CC)C(=O)CN(c1ccc2c(c1)OCO2)S(C)(=O)=O	99	x	x	0.7	-59	143	-2
CCN(CC)c1ccc(CN(C(=O)c2cc(OC)c(OC)c(OC)c2)C2CCS(=O)(=O)C2)cc1 (stereo not given)	141	i	0.93	0.5	x	x	7
CCOC(=O)c1cc(C(C)C)sc1NC(=O)COC(=O)CCS(=O)(=O)c1ccccc1	108	i	0.86	1.0	60*	115*	10
CCOc1ccc(NC(=S)NCCCN2CCN(c3ccc(OC)cc3)CC2)cc1	99	i	1.1	x	3	101	-9
COc1ccccc1N1CCN(C(=O)CSc2nnc3n2C(C)(C)Cc2ccccc2-3)CC1	95	i	0.84	-1.7	x	x	-2
C/C(=N\Nc1ccc([N+](=O)[O-])cc1)c1ccc(C#N)cc1	99	i	1.1	x	x	x	x
ClCc1nnc(-c2ccccc2)o1	46	i	0.99	0.5	36	67	1
O=C(NNC1CC(=O)N(c2ccc(Br)cc2)C1=O)c1ccco1 (stereo not given)	100	i	1	x	x	x	-8
Cc1cccc(C(=O)NC(=S)N2CCN(C(=S)NC(=O)c3cccc(C)c3)CC2)c1	89	i	1.1	-1.1	14	83	-2
C1=C(c2cccc3ccccc23)N2CCN=C2S1	98	i	0.99	-6.9	-29	79	1
O=C(NC1CCCCCC1)c1cc(-c2ccccn2)nc2ccccc12	94	i	1.1	x	x	x	-3
COc1ccccc1NC(=S)NCC1CCCCC1	92	i	1.1	-2.4	13	89	-1
O=c1cc(N2CCN(c3ccccc3)CC2)[nH]c(=O)n1-c1ccccc1Cl	100	i	0.93	-2.9	-26	93	-6
COc1ccccc1N1CCN(C(=O)c2ccoc2C)CC1	100	i	1.1	0.0	x	x	-9
CCN(CC)CCn1c(=S)[nH]c2ccccc2c1=O	88	i	0.79	-3.2	21	97	-6
Fc1ccc(NCc2cccnc2)cc1	101	i	0.9	36*	-14	90	4
C/C(=N\NC(=O)C1CC1)c1ccc(Cl)cc1	100	i	1	0.1	x	x	1
O=C1CC(=C(c2ccccc2)c2ccccc2)C(=O)N1CCCCN1CCN(c2cccc(Cl)c2)CC1	93	i	1.1	-2.7	14	104	2
Cc1cc(C)n(CCc2nc(-c3ccc(-c4ccccc4)cc3)cs2)n1	101	i	0.92	-0.6	-7	122	-2
CC(=O)Nc1ccn(-c2ccccc2)n1	102	i	1	-3.5	-12	122	3

One compound at a time, as listed above. Values in the order: RGS16-Gao HTS, HSV augment, HSV augment primary fold, GALR2 ag, INS promoter inh, INS promoter inh cell count, PKD1 kinase inh
C/C(=N\NC(=O)C1CC1)c1ccc(Cl)cc1 in the list: 100, i, 1, 0.1, x, x, 1
O=c1cc(N2CCN(c3ccccc3)CC2)[nH]c(=O)n1-c1ccccc1Cl in the list: 100, i, 0.93, -2.9, -26, 93, -6
O=C1CC(=C(c2ccccc2)c2ccccc2)C(=O)N1CCCCN1CCN(c2cccc(Cl)c2)CC1 in the list: 93, i, 1.1, -2.7, 14, 104, 2

Further results follow.
SMILES	RGS16-Gao HTS	HSV augment	HSV augment primary fold	GALR2 ag	INS promoter inh	INS promoter inh cell count	PKD1 kinase inh
CCOc1ccc(NC(=S)N(Cc2ccc(N(C)C)cc2)Cc2ccco2)cc1	96	i	0.81	-0.9	-14	46	-6
O=C(NNC1CC(=O)N(c2ccc(Br)cc2)C1=O)c1cccs1 (stereo not given)	101	i	0.93	x	x	x	x
COc1ccc(NC(=O)Nc2nnc(-c3ccncc3)s2)cc1	108	i	0.74	x	0	154	-2
CN(C)S(=O)(=O)c1ccc(C(=O)NCc2ccc3[nH]c4c(c3c2)CCCC4)cc1	102	i	0.99	-0.8	-66	74	-8
CC(C)CC(=O)NC(=S)N1CCCCCC1	x	i	0.98	-0.8	x	x	-5
COc1cccc(OC)c1C(=O)n1nc(C)cc1C	79	i	0.93	-2.6	-21	205	1
CCCCOC(=O)C1=C(C)NC2(O)c3ccccc3C(=O)C12O (stereo not given)	96	i	1.1	-2.5	-21	75	3
CCOC(=O)C(Cc1ccccc1)NC(=O)Cn1nnc(-c2ccc(SC)cc2)n1 (stereo not given)	99	i	1.1	-1.1	3	82	-9
C=CC1C(OC2OC(CO)C(O)C(O)C2O)OC=C(C(=O)OC)C1CC1CC(=O)CC(CC(=O)CCc2ccc(O)cc2)O1 (stereo not given)	101	i	1	x	x	x	x
COC(=O)C1CCC(C)(C(=O)Nc2ccccc2)C1(C)C (stereo not given)	90	i	0.94	-0.9	x	x	-6
CCN(CC)c1ccc(NC2=C(Cl)C(=O)c3ccccc3C2=O)cc1	71	i	0.74	3.0	-97	18	-9
Oc1ccc(-c2nc3c4c(ncn3n2)-c2ccccc2CC42CCCC2)cc1	104	i	0.92	-0.7	-19	169	-10
CC(C)C[C@H](NC(=O)c1nc[nH]c1C(=O)NC1CCN(C(=O)OC(C)(C)C)CC1)C(=O)OC(C)(C)C	98	i	0.52	x	x	x	1
CCCCn1nnnc1SCC(=O)Nc1ccc(F)cc1	100	i	0.99	-2.7	-11	155	-4
O=C(CC1(O)C(=O)N(Cc2ccccc2)c2ccccc21)c1ccc2c(c1)OCO2 (stereo not given)	101	i	0.85	-1.2	-436	112	-6
CCOC(=O)c1ccc(NS(=O)(=O)c2ccc3c(c2)CCCN3C(C)=O)cc1	107	i	0.99	-0.3	6	169	-9
Cn1nc(CC(=O)NCc2cccc3ccccc23)c2ccccc2c1=O	88	i	0.93	0.7	7	62	6

Quoted at random: 5 entries already listed.
SMILES	RGS16-Gao HTS	HSV augment	HSV augment primary fold	GALR2 ag	INS promoter inh	INS promoter inh cell count	PKD1 kinase inh
Cn1nc(CC(=O)NCc2cccc3ccccc23)c2ccccc2c1=O	88	i	0.93	0.7	7	62	6
Oc1ccc(-c2nc3c4c(ncn3n2)-c2ccccc2CC42CCCC2)cc1	104	i	0.92	-0.7	-19	169	-10
CCN(CC)c1ccc(NC2=C(Cl)C(=O)c3ccccc3C2=O)cc1	71	i	0.74	3.0	-97	18	-9
CCOC(=O)c1ccc(NS(=O)(=O)c2ccc3c(c2)CCCN3C(C)=O)cc1	107	i	0.99	-0.3	6	169	-9
O=C(CC1(O)C(=O)N(Cc2ccccc2)c2ccccc21)c1ccc2c(c1)OCO2 (stereo not given)	101	i	0.85	-1.2	-436	112	-6
